# Source: PubChem BioAssay (National Center for Advancing Translational Sciences (NCATS))
# GLA inh pH 4.5: inhibitors of human alpha-galactosidase A at pH 4.5. AID 1467. P06280. purified enzyme, 4-MU-alpha-Gal fluorescence, pH 4.5. 230,000 tested, under 10 active. activity change, negative = inhibition, % at 105 µM; inconclusive = small, poorly fitted or top-dose-only inhibition, or a rising curve; inactive = flat fitted curve, though single readings scatter; no compound was filed as active;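 note: 0% = full activity with enzyme and -100% = basal without enzyme; dose as in the result columns while the protocol names 77 µM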
# Target sequence (P06280 whole entry, looked up): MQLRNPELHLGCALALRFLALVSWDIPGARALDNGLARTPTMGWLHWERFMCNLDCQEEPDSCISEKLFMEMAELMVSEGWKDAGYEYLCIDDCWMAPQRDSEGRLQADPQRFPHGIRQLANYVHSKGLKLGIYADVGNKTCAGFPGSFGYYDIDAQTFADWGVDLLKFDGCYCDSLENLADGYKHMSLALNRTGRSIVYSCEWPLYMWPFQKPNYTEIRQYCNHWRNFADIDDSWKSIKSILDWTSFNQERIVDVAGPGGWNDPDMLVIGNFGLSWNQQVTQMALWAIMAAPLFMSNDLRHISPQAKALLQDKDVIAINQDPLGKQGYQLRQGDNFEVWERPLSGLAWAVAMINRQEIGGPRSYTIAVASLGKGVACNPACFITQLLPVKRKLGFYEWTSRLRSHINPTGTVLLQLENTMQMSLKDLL
# miR-21 reporter: raises the signal of a miR-21 reporter. HeLa miR-21 FLuc reporter, luciferase, 48 h. Potency, µM (top dose mostly 38.3 µM), inactives show at the top dose reporter change, positive = more light. 340,000 tested, under 10 active; active = well fitted rising curve with a large enough effect; inconclusive = small, poorly fitted or top-dose-only effect; inactive = no such curve, though single readings can be large or run the other way;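 note: % of control where 0% means no effect; miR-21 action dims this reporter so a rising signal means less miR-21 action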
#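 HeLa miR-21-FLuc reporter line, endogenous miR-21; 2000 cells/well in DMEM/10% FBS; compound titration up to ~40uM final, 48 h, 37 degree Celsius; luciferase detection reagent, 15 min lysis, CCD luminescence.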
# Rango release inh: inhibition of RanGTP-driven Rango-importin beta dissociation. O95149+P62826. Biochemical FRET Rango-importin beta, RanGTP-induced dissociation. Potency, µM (doses to about 46.1 µM), inactives show at the top dose activity change, negative = inhibition. hit rate 0.071% among 340,000. AID 540253; active means falling FRET ratio curve, often poorly fitted, with flat reads before Ran was added; inconclusive means other falling curves, or compound fluorescence or quenching; inactive means flat or rising ratio curve;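 note: potency is the fitted concentration of half-maximal effect; % of control where 0% means no effect; nearly all actives have a fitted effect of over 45% in size; -100% = wells without RanGTP and RCC1; the record marks most hits as doubtful in a second field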
#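 Recombinant Rango FRET biosensor (EYFP–snurportin 1 IBB–cerulean CFP10) at 0.1 uM premixed with 0.25 uM importin beta in PBS, 1 mM DTT, 0.02% Tween-20, 0.1% BSA. Compound added 5 min; RanGTP-RCC1 (0.6 uM Ran, 2 mM GTP, 0.2 uM RCC1) then triggers release, read at 45 min.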
# Rango-impB inh: prevents formation of the Rango-importin beta complex. Q14974. Rango CFP/YFP FRET sensor + importin beta, 45 min. Potency, µM (top dose mostly 92.2 µM), for inactives: top-dose inhibition of complex formation. hit rate 0.031% among 340,000. AID 540263; active = rising FRET ratio curve, often small or poorly fitted; inconclusive = mostly compound fluorescence or quenching in the first reads; inactive = flat curves in all reads;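 note: potency is the fitted concentration of half-maximal effect; 0% = DMSO wells and 100% = buffer wells lacking importin beta; nearly all actives have a fitted effect of over 15% in size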
#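 FRET biosensor Rango (snurportin 1 IBB between N-terminal EYFP and C-terminal Cerulean), 50 nM in PBS/1 mM DTT/0.02% Tween-20/0.1% BSA, preincubated 5 min RT with compound; 0.125 microM importin beta added, 45 min RT, CFP/YFP FRET ratio read.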
# Numbers without * were called inactive; u = inconclusive; x = no result given; & = joins results of further samples. A portion of the library (hit frequency here may not be typical).
SMILES,GLA inh pH 4.5,miR-21 reporter,Rango release inh,Rango-impB inh
Cc1cc(C)nc(N2CCCC(CCC(=O)NCc3ccc(F)c(F)c3)C2)n1 (centres undefined),-4,-4%,3%,-1.4%
Cc1ccc(-n2c(C)nn(CC#N)c2=O)cc1,-18,-2%,25%,-0.7%
CN(CCO)CCC(=O)NC1(C)CS(=O)(=O)CC1S(=O)(=O)O (centres undefined),5,2%,1%,0.2%
Cc1cc(NC(=O)CSc2nc3c(cc2C#N)CCCCC3)no1,-4,-40%,u,0.5%
COc1ccc(S(=O)(=O)N2CCCC2)cc1C(C)C,3,-11%,0%,-3.0%
FC(F)Oc1ccc(NC(=S)NCc2ccccc2)cc1Cl,-5,15%,5%,1.8%
O=C(Oc1ccc2c3c(c(=O)oc2c1)CCCC3)c1ccco1,u,-6%,u,u
Cc1ccccc1NC(=O)CSc1nc(N)c2c3c(sc2n1)CSC(C)(C)C3,-12,19%,-16%,-2.3%
O=C(CSc1cccc2cccnc12)OCC(=O)c1ccccc1,-2,-3%,-1%,-0.1%
CC1CCCN(C(=O)CN(C)S(=O)(=O)c2ccc3c(c2)c(=O)n(C)c(=O)n3C)C1 (centres undefined),x,-7%,24%,5.9%
CCc1nnc(SCC(=O)NCCC2=CCCCC2)nc1CC,x,5%,19%,-3.6%
COCC(C)NC(=O)C(C)Oc1ccccc1 (centres undefined),9,-7%,-1%,-3.5%
O=C(NCc1ccco1)NC12CC3CC(CC(C3)C1)C2,5,-7%,0%,-3.6%
COc1cc(OC)cc(-c2c(-c3cccs3)c3cc(-c4ccc(N(C)C)nc4)ccc3n2C)c1,x,x,u,-1.0%
COc1cccc(NC(=O)CN(C)C(=O)c2cccc(NS(=O)(=O)c3ccccc3)c2)c1,x,x,-10%,0.9%
Cc1ccc(NC(=O)c2ccc(S(=O)(=O)N3CCOCC3)cc2)nc1,4,-3%,18%,-2.4%
Cc1cccc(N(C(=O)CNC(=O)c2ccco2)C(C(=O)NC2CCCCC2)c2cccnc2)c1 (centres undefined),x,0%,3%,-0.1%
Cc1ccc([C@H]2C(C(=O)O)=CC[C@@H](c3cccs3)N2S(=O)(=O)c2ccc(C)cc2)cc1,x,x,12%,-1.3%
CN(C)C(=S)NC(=S)Nc1ccc2ccccc2c1,x,x,-2%,-4.8%
CCN(CC)CCn1c2c(c(SCC(=O)Nc3nc4ccccc4s3)nc1=O)CCCC2,x,x,-20%,3.6%
CC1CCN(CC(O)COc2cccc(F)c2)CC1 (centres undefined),-9,-8%,-7%,0.0%
COc1ccc(NC(=O)C2CCCN2C(=O)OCc2ccccc2)c(OC)c1 (centres undefined),-1,-10%,-1%,-2.5%
Cc1cc(=O)oc2cc(OCc3ccc(C(=O)N4CCN(c5ccc([N+](=O)[O-])cc5)CC4)cc3)ccc12,-1,-9%,3%,-1.8%
O=C(Cc1ccccc1)NNc1c2ccccc2nc2ccccc12,-25,9%,-2%,0.2%
Cc1cc(N)n(Cc2ccc(Cl)cc2)n1,-6,2%,13%,u

# Reformatted: 2 of the compounds above.
SMILES	GLA inh pH 4.5	miR-21 reporter	Rango release inh	Rango-impB inh
CN(CCO)CCC(=O)NC1(C)CS(=O)(=O)CC1S(=O)(=O)O (centres undefined)	5	2%	1%	0.2%
Cc1cc(NC(=O)CSc2nc3c(cc2C#N)CCCCC3)no1	-4	-40%	u	0.5%

# Further results follow.
SMILES,GLA inh pH 4.5,miR-21 reporter,Rango release inh,Rango-impB inh
O=C(Nc1ccc2c(c1)C(=O)NC2=O)c1ccc2ncsc2c1,0,-22%,8%,0.0%
CN(C)CCCNc1ncc(C(F)(F)F)cc1Cl,-4,-1%,19%,-1.9%
CC(C)N1CCC(n2nccc2NC(=O)c2ccc3c(c2)OCO3)CC1,x,0%,6%,1.6%
Cc1[nH]c(=O)c(C#N)c(C)c1Cl,-5,-18%,-10%,4.3%
C=CCNC(=O)CN1CCC(n2c(C)nc3cc(C(F)(F)F)ccc32)CC1,-6,-6%,0%,-4.4%
CCC(CC)NC(=O)c1cc(OC)c(OC)cc1[N+](=O)[O-],3,-4%,14%,-4.4%
O=C(O)CCCNC(=O)CCCn1nnc2ccccc2c1=O,-23,-3%,-20%,-1.4%
COc1cccc(C2NC(=O)NC(C)=C2C(=O)Nc2ccc(C)cc2)c1 (centres undefined),-5,-1%,-9%,-2.5%
CCN(Cc1ccccc1)S(=O)(=O)c1cc(C(=O)O)ccc1OC,-4,-6%,0%,4.7%
N#Cc1ccccc1S(=O)(=O)N1CCN(C(=O)c2cc(=O)[nH]c3ccccc23)CC1,x,x,-19%,-3.5%
CN1C(=O)/C(=C\c2ccncc2)SC1=Nc1ccccc1,-8,-14%,-13%,-4.1%
Cn1c(=O)cc(OCC(=O)N2CCN(c3ccccc3F)CC2)c2ccccc21,0,-2%&6%,-9%,-1.6%
O=C(OCC(=O)N1CCc2ccccc21)c1n[nH]c(=O)c2ccccc12,x,x,15%,-0.7%
Cc1ccc(C(=O)NC(=S)Nc2ccc(NC(=O)c3cccs3)cc2)cc1[N+](=O)[O-],-10,-7%,-1%,-0.3%
COCCNc1nnc(SC(C)C(=O)Nc2c(C)n(C)n(-c3ccccc3)c2=O)s1 (centres undefined),x,-1%,8%,u
Cc1ccc(NC(=O)CSCCc2ccccn2)nc1,-1,-10%,-5%,-0.3%
Cc1ccccc1NC(=O)CN1C(=O)COc2ccc(S(=O)(=O)N3CCCC3)cc21,x,0%,6%,0.7%
O=C(COC(=O)c1cc[n+]([O-])cc1)Nc1ccccc1Cl,-7,-2%,3%,-1.0%
Cc1ccc(-n2c(SCC(=O)O)nc3c(sc(=S)n3-c3ccc(C)c(C)c3)c2=O)cc1,x,-1%,-5%,-0.5%
CC(=O)c1cccc(Nc2cc(C)nc3ccccc23)c1,-4,3%,5%,9.4%
C=CCNC(=O)/C(=C\C=C\c1ccccc1)NC(=O)c1ccc(OCCCC)cc1,-7,-2%,u,u
CC(C)C(NC(=O)OCc1ccccc1)C(=O)NC(Cc1ccc(O)cc1)C(=O)O (centres undefined),x,-7%,5%,0.1%
Cc1ccc(S(=O)(=O)N(C)c2ccccc2)cc1,6,-8%,-19%,2.9%
Clc1ccc(CSc2nnc(-c3ccccn3)n2Cc2ccco2)c(Cl)c1,-4,12%,-13%,u
CC(C)CNC(=O)CC(c1ccccc1)c1c(O)ccc2ccccc12 (centres undefined),7,-4%,17%,2.8%
# Following part
SMILES,GLA inh pH 4.5,miR-21 reporter,Rango release inh,Rango-impB inh
Cc1cccc(C(=O)N2CCN(c3ccc([N+](=O)[O-])c(N4CCOCC4)c3)CC2)c1,0,1%,3%,0.5%
COc1ccc(NC(=O)Nc2cc(C)ccc2OC)cc1,6,-22%,3%,-3.3%
CCN(CCn1cccn1)C(=O)CC1C(=O)NCCN1Cc1ccc(F)c(F)c1 (centres undefined),6,-2%,0%,-0.7%
CCNc1cc(N2CCN(S(=O)(=O)c3ccc4c(c3)CCCC4)CC2)ccc1[N+](=O)[O-],0,-1%,-1%,-0.1%
CCC(C)(C)NC(=O)Cn1c(=O)oc2cc(S(=O)(=O)N3CC(C)CC(C)C3)ccc21 (centres undefined),x,-3%,5%,-5.5%
CCOc1cccc(=O)c2c(C)n(C)c(C)c12,-1,-5%,u,9.2%
CCCn1c(=O)c2ccccc2n2c(SCC(=O)c3ccc(CC)cc3)nnc12,-2,-7%,3%,3.6%
CCOc1cc(/C=N/OC(C)=O)ccc1OCc1ccccc1,-7,-35%,2%,-1.1%
Cc1ccc(-n2c(-c3ccccc3)n[nH]c2=S)cc1,-9,-1%,2%,-2.2%
CC(NC(=O)CSc1nnc(CC(=O)Nc2ccc(Cl)c(Cl)c2)n1C)c1ccccc1 (centres undefined),-17,-3%,-25%,0.6%
CCC(=O)Nc1ccc2nc(C)n(Cc3ccccc3Cl)c(=O)c2c1,7,-21%,-20%,1.4%
O=C(CSc1ccc2nnc(-c3cccnc3)n2n1)NCc1ccc2c(c1)OCO2,5,-9%,-1%,-2.1%
COc1c(-c2ccc([N+](=O)[O-])cc2[N+](=O)[O-])c(=O)n(C)c(=O)n1C,x,0%,-1%,-0.5%
CCCNC(=O)c1ccc2c(=O)c(O)c(-c3ccsc3)[nH]c2c1,-14,-1%,u,u
O=[N+]([O-])c1cc(S(=O)(=O)C(F)(F)F)ccc1Sc1nc2ccccc2s1,-8,1%,u,u
CS(=O)(=O)c1nc(-c2ccco2)cc(C(F)(F)F)n1,-11,u,x,x
COc1cc(CN2CCN(C(O)(c3ccccc3)c3ccccc3)CC2)cc(OC)c1OC,x,10%,2%,-0.8%
N#CCCN1CCn2c1nc1ccccc12,-4,-14%,5%,3.9%
COc1cc(NS(=O)(=O)c2ccc(NC(C)=O)cc2)nc(OC)n1,-3,-2%,0%,-0.3%
C=C(C)CC1Nc2ccccc2NC1CC(=C)C (centres undefined),-10,-5%,u,u
Cc1cccc(Nc2ccc(C(=O)N3CCOCC3)cn2)c1,0,-36%,-1%,-6.1%
COC(=O)c1ccc(NC(=O)CCc2c(C)nc3ncnn3c2C)cc1,-7,-5%,6%,-2.8%
Cc1nnc(NC(=O)CSc2nnc(Cc3cccn3C)n2-c2cccc(C(F)(F)F)c2)s1,0,-3%,3%,-0.4%
Cc1cnn(CCC(=O)NNC(=S)Nc2cccc(Cl)c2)c1,6,-1%,2%,-2.5%
Cc1ccc(S(=O)(=O)NCCC(=O)N(C)Cc2cccs2)cc1,x,x,10%,u

# The last six records of the part above are carried over, then new ones follow:
SMILES,GLA inh pH 4.5,miR-21 reporter,Rango release inh,Rango-impB inh
C=C(C)CC1Nc2ccccc2NC1CC(=C)C (centres undefined),-10,-5%,u,u
Cc1cccc(Nc2ccc(C(=O)N3CCOCC3)cn2)c1,0,-36%,-1%,-6.1%
COC(=O)c1ccc(NC(=O)CCc2c(C)nc3ncnn3c2C)cc1,-7,-5%,6%,-2.8%
Cc1nnc(NC(=O)CSc2nnc(Cc3cccn3C)n2-c2cccc(C(F)(F)F)c2)s1,0,-3%,3%,-0.4%
Cc1cnn(CCC(=O)NNC(=S)Nc2cccc(Cl)c2)c1,6,-1%,2%,-2.5%
Cc1ccc(S(=O)(=O)NCCC(=O)N(C)Cc2cccs2)cc1,x,x,10%,u
CCc1cc(C(c2cccc(OC)c2)N2CCOCC2)c(NC(=O)c2ccccc2)s1 (centres undefined),2,-18%,-5%,3.1%
O=C(Nc1ccccc1)Nc1cnccn1,x,-14%,27%,1.8%
N#CC1=C2SCN(c3ccccc3)CN2C(=O)CC1c1ccccc1Cl (centres undefined),-2,-6%,-3%,0.3%
COc1ccc(Cl)cc1NC(=O)CNCC(c1ccccc1)N(C)C (centres undefined),6,-7%,11%,3.1%
Cn1cccc1C(=O)OCC(=O)NCCCc1ccccc1,x,x,1%,-3.5%
CC(C)OC(=O)c1cc2ccccc2[nH]1,-4,-8%,15%,-1.1%
Cc1ccc(S(=O)(=O)Nc2cccc(C(=O)NCC(c3ccc(F)cc3)N3CCOCC3)c2)cc1 (centres undefined),x,x,8%,1.9%
Cc1ccc(NS(=O)(=O)c2ccc3c(c2)oc(=O)n3C)cc1C,x,0%,9%,3.3%
CC(C)(C)NC(=O)COC(=O)/C=C/c1ccccc1[N+](=O)[O-],-9,-1%,13%,-1.2%
COc1ccc(-c2nc3ccccc3[nH]2)cc1,3,11%,9%,-0.4%
CCN(CC(=O)Nc1ccc2c(c1)OCCO2)S(=O)(=O)c1cccs1,2,-30%,-11%,1.1%
Cc1cc(OC(=O)c2ccco2)c2c(C)cc(=O)oc2c1,9,-3%,-10%,0.7%
Cc1cccc(OCCC(=O)NCC(c2ccco2)N2CCCCC2)c1 (centres undefined),1,1%,11%,2.9%
NNc1nc2c(-c3cccc(C(F)(F)F)c3)nnn2c2ccccc12,x,-6%,u,u
COc1ccccc1OCCCCn1ncc2ccc(OC)c(OC)c2c1=O,x,-6%,5%,2.0%
CC(C(=O)NCCCc1ccccc1)c1ccc([N+](=O)[O-])cc1 (centres undefined),-7,0%,-15%,5.8%
Nn1c(-c2cccc([N+](=O)[O-])c2)nc2ccccc2c1=O,x,-2%,-4%,5.6%
COc1ccccc1C(=O)NCc1ccccn1,-2,-13%,-2%,0.2%
